Screens from PubChem.
Mtb H37Rv: Mycobacterium tuberculosis H37Rv growth inhibition, putative kinase inhibitor library, confirmatory dose response (AID 2842). M. tuberculosis H37Rv growth inhibition; higher % means a stronger effect; some inactives read as strong as hits. one-dose inhibition, % at 10 µg/mL; IC90 in µg/mL for titrated hits. 24,000 compounds, 5.2% hits;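 active = confirmed in a dose series; about a fifth of its hits are not listed in these tables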;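 also: bacteria incubated one week before Alamar blue readout; 0% = bacteria only wells and 100% = bacteria with high antibiotic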
* hit, by the source's call. These rows are one share of the data, so the mix of outcomes need not match the whole.

Compound | Mtb H37Rv
Cc1c(NS(=O)(=O)c2ccc3c4c(cccc24)C(=O)N3)c(=O)n(-c2ccccc2)n1C | -2%
O=C(Nc1ccc(S(=O)(=O)Nc2ncccn2)cc1)c1cc2c(ccc3ccccc32)oc1=O | -4%
COc1cc(-c2cc(=NCC(=O)O)c3cc(C)cc(C)c3o2)ccc1O | -7%
O=C(NCc1ccc(Cl)cc1)C(=O)Nc1cc2c3c(c1)CCN3C(=O)CC2 | -1%
CCn1ccc2c(OCC(=O)NC(C)C)cccc2c1=O | -8%
Cc1ccc(-n2nnc3c(=O)n(Cc4ccc([N+](=O)[O-])cc4)cnc32)cc1C | 0%
COc1ccccc1-c1nnc(Nc2nc3c(OC)cccc3s2)o1 | 14%
CCc1ccccc1NC(=O)COC(=O)c1ccc2c(c1)C(=O)N(c1cccc(C)c1C)C2=O | 8%
CC(C)C(=O)Nc1c(C(=O)Nc2ccc(F)c(F)c2)oc2ccccc12 | -5%
Clc1ccc(CSc2ccc3nnc(-c4ccncc4)n3n2)c(Cl)c1 | 58%
Cc1ccc2nc(-c3ccc(NC(=O)c4ccc(C#N)cc4)cc3)sc2c1 | 4%
CS(=O)(=O)Nc1ccc(C2=NN(c3nc(-c4ccccc4)c4cc(Cl)ccc4n3)C(c3cccs3)C2)cc1 (configuration not stated) | 30%
COc1ccccc1/C=N/Nc1nc(C)c(C(C)=O)s1 | -6%
CCc1ccc(N2CC(C)Cn3c2nc2c3c(=O)n(CC(=O)O)c(=O)n2C)cc1 (configuration not stated) | -9%
Cc1cnc(=O)[nH]c1SCC(=O)N1CCC(C)CC1 | -10%

Continued:
Compound | Mtb H37Rv
O=C(CSC1=N/C(=C/c2ccc3c(c2)OCO3)C(=O)N1c1ccccc1)c1ccc(F)cc1 | -18%
COc1ccc(Br)cc1-c1nc(C(N)=O)c2[nH]c(=O)n(-c3ccc4c(c3)OCO4)c2n1 | -4%
CCc1nnc(NC(=O)c2c(-c3ccccc3Cl)noc2C)s1 | 4%
COc1cccc(C(=O)NCCc2cc3c(C)ccc(C)c3[nH]c2=O)c1 | -2%
Fc1cccc(Nc2nc(Nc3ccc(Cl)cc3)c3nccnc3n2)c1 | -1%
CC1=C(C(=O)OC(C)C)C(c2ccc(OCc3ccccc3)cc2)NC(=O)N1C (configuration not stated) | 25%
Cc1cc(O)c(C(=O)Nc2cccc(Cl)c2)c(=O)n1Cc1ccccn1 | -8%
Cc1ccc(S(=O)(=O)Nc2nc3ccccc3s2)cc1[N+](=O)[O-] | -10%
COC(=O)c1ccc(Cn2cnc3sc4c(c3c2=O)CCC(C)C4)cc1 (configuration not stated) | 14%
CCOC(=O)Cc1csc(NC(=O)CSc2nc3sc(C(=O)O)c(C)c3c(=O)[nH]2)n1 | -23%
Cc1cccc(N2CCCn3c2nc2c3c(=O)n(CC(=O)O)c(=O)n2C)c1 | 2%
CCC(Sc1ccccc1)C(=O)Nc1nnc(-c2c(C)cc(C)cc2C)s1 (configuration not stated) | 4%
CC(=O)c1sc(NC(=O)c2ccc3ncsc3c2)nc1-c1ccccc1 | 12%
Nc1nc(SCC(=O)Nc2ccc(Cl)c(Cl)c2)[nH]c(=O)c1NC(=O)c1ccc(Cl)cc1 | -12%
CCc1nnc(NS(=O)(=O)c2ccc(NC(=O)c3cc(Cl)ccc3Cl)cc2)s1 | 0%

Some of the entries above, set out differently.
Structure: CCOC(=O)Cc1csc(NC(=O)CSc2nc3sc(C(=O)O)c(C)c3c(=O)[nH]2)n1
- Mtb H37Rv: -23%

Structure: CCc1nnc(NS(=O)(=O)c2ccc(NC(=O)c3cc(Cl)ccc3Cl)cc2)s1
- Mtb H37Rv: 0%

Structure: COc1ccccc1-c1nnc(Nc2nc3c(OC)cccc3s2)o1
- Mtb H37Rv: 14%

(further entries)
Compound | Mtb H37Rv
COc1ccc(C(=O)CSc2ccc3nnc(-c4ccc(F)cc4)n3n2)cc1 | -3%
COc1ccc(-c2nnc3c4cc5c(cc4n(Cc4ccccc4F)cc2-3)OCCO5)cc1 | 63%
Cc1ccc(CSc2nc3c(c(=O)[nH]2)C(c2cccs2)C2=C(CC(C)(C)CC2=O)N3)cc1 (configuration not stated) | 10%
O=C(N/N=C/c1c[nH]c2ccccc12)c1[nH]nc2c1CCc1ccccc1-2 | 45%
COc1ccc(C(=O)Nc2nc3c(OC)cccc3s2)c(OC)c1 | 1%
O=C(Cn1cnc2c(cnn2-c2cccc(Cl)c2)c1=O)NC1CCCC1 | -10%
CCN(CC)c1ccc(C(=O)Nc2nc(-c3ccc(C#N)cc3)cs2)cc1 | 0%
Cn1c(=O)[nH]c(=O)c2c1nc(N1CCN(CC(N)=O)CC1)n2Cc1ccc(Cl)cc1 | 7%
O=c1[nH]ncc(N/N=C\c2cc(Br)ccc2O)c1Cl | -6%
C=CCn1c(=NC(=O)c2cccs2)sc2cc(NC(C)=O)ccc21 | 6%
O=C(CSc1ccc2nnc(-c3ccccn3)n2n1)N1CCc2ccccc21 | -7%
CCOC(=O)c1sc(NC(=O)C(C)Sc2ncnc3ccccc23)c(C(=O)OCC)c1C (configuration not stated) | 6%
CC(C)Cn1c(N/N=C/c2ccc(O)cc2O)nc2c1c(=O)[nH]c(=O)n2C | 2%
COc1ccc(-c2nc(CCNC(=O)CCC(=O)O)cs2)cc1OC | -1%
Nc1ncnc(NCc2cccnc2)c1[N+](=O)[O-] | -1%

(list continues)
Compound | Mtb H37Rv
O=C(CSc1ncnc2c1oc1ccccc12)Nc1ccc([N+](=O)[O-])cc1 | 9%
CCOc1ccc(-n2ccnc(NCc3ccccc3OC)c2=O)cc1 | 63%
CCN1C(=O)c2cccc3c(NC(=O)c4ccc(Cl)s4)ccc1c23 | 8.7µg/mL*
COc1ccc(C(CNC(=O)C(=O)Nc2cccc(NC(C)=O)c2)N2CCN(C)CC2)cc1 (configuration not stated) | -8%
COc1ccc(Nc2nc(Nc3cc(C)ccc3C)c3nccnc3n2)cc1Cl | -2%
COc1ccccc1NC(=O)CSc1nc(N)c(NC(=O)c2ccc(OC)c(OC)c2)c(=O)[nH]1 | -7%
COc1ccc(NC(=O)c2oc3ccccc3c2NC(=O)c2cccs2)cc1OC | -3%
O=C(CSc1nc2sc3c(c2c(=O)[nH]1)CCCC3)NCCCO | -11%
Cc1ccccc1NS(=O)(=O)c1c[nH]c(=O)[nH]c1=O | 3%
O=C(COc1ccccc1F)Nc1c(C(=O)Nc2ccc3c(c2)OCO3)oc2ccccc12 | 9%
CC(=O)N1CCc2c(sc(NC(=O)c3cc4c(ccc5ccccc54)oc3=O)c2C#N)C1 | -1%
O=C(Nc1nc(-c2nc3ccccc3s2)cs1)c1ccc2ccccc2c1 | 3%
O=C(O)C(=Cc1nc(-c2ccccc2)n2ccccc12)C(=O)O | -13%
CCOC(=O)c1nn(-c2ccc(C(F)(F)F)cc2)c(=O)c2c(NC(=O)c3cccc([N+](=O)[O-])c3)scc12 | -3%
O=C(CN1C(=O)c2ccccc2C1=O)Sc1n[nH]c(=O)[nH]c1=O | -8%

Rewritten field by field: entries from further up
> O=C(CSc1nc2sc3c(c2c(=O)[nH]1)CCCC3)NCCCO
- Mtb H37Rv = -11%
> Cc1ccccc1NS(=O)(=O)c1c[nH]c(=O)[nH]c1=O
- Mtb H37Rv = 3%
> O=C(COc1ccccc1F)Nc1c(C(=O)Nc2ccc3c(c2)OCO3)oc2ccccc12
- Mtb H37Rv = 9%

The list continues.
Compound | Mtb H37Rv
CC1C(=O)N2CCCc3cc(NC(=O)C(=O)NCc4ccccc4)cc1c32 (configuration not stated) | 13%
Cc1cccc(-n2ccn(CC(N)=O)c(=O)c2=O)c1C | -5%
Cc1sc2nc(SC3C=CCCC3)[nH]c(=O)c2c1C (configuration not stated) | 5%
COc1ccc(-n2nc3c(c2NC(=O)Cc2cccs2)CSC3)cc1 | -4%
Cc1cn2c3c(=O)n(CC(N)=O)c(=O)n(C)c3nc2n1-c1ccccc1F | -7%
CCCCCCCNC(=O)c1c(N)n(/N=C/c2ccco2)c2nc3ccccc3nc12 | -9%
CN(CCCC(=O)Nc1ccccc1)S(=O)(=O)c1ccc(Cl)cc1 | 0%
Cc1ccc(S(=O)(=O)CCC(=O)Nc2sccc2C(N)=O)cc1 | 7%
COc1ccc(NC(=O)c2cccc3nc4ccccc4nc23)c(OC)c1 | 4.1µg/mL*
C=C(C)Cn1c(SCCN2CCOCC2)nc2c1c(=O)[nH]c(=O)n2C | -8%
COc1ccc(S(=O)(=O)c2cn(CC(=O)Nc3ccc(C)cc3C)c3ccc(F)cc3c2=O)cc1 | -3%
O=c1[nH]c(SCCO)nc2sc3c(c12)CCCC3 | 21%
CCOC(=O)c1nn(-c2ccc(C(F)(F)F)cc2)c(=O)c2c(NC(=O)c3ccccc3F)scc12 | 2%
Cc1ccc(NC(=O)c2oc3ccccc3c2NC(=O)c2ccc(F)c(F)c2)cc1C | -5%
CC(C(=O)Nc1nccs1)C1SC(=O)NC1=O (configuration not stated) | 74%

(more compounds)
Compound | Mtb H37Rv
O=C(Nc1cccc(C(F)(F)F)c1)c1c[nH]c(=O)n(-c2ccc(F)cc2)c1=O | 15%
CCOc1ccc(-n2c(SCC(=O)Nc3ccc(CC)cc3)nc3c([nH]c4ccccc43)c2=O)cc1 | 8%
CCCc1cc(=O)[nH]c2nnc(SCC#N)n12 | -8%
COc1ccccc1NC1=C(Cl)C(=O)N(c2ccccc2F)C1=O | 5%
CC1C(=O)N2CCCc3cc(NC(=O)C(=O)NCc4ccc(F)cc4)cc1c32 (configuration not stated) | 2%
COc1ccc(Cn2cc(C(=O)c3ccc(C)cc3)c(=O)c3cc(F)cc(F)c32)cc1 | -2%
O=c1nc2oc(-c3ccccc3)cc(-c3ccccc3)c-2c(=O)[nH]1 | 77%
O=C(c1ccccc1)c1cc(Cl)ccc1NC(=O)c1coc2ccccc2c1=O | 5%
COc1cc(/C=C/C(=O)Oc2coc(CSc3nccc(C)n3)cc2=O)cc(OC)c1OC | -2%
O=C(CSc1nnc2ccc(-c3cccc([N+](=O)[O-])c3)nn12)c1cccs1 | -10%
CCOC(=O)c1c(NC(=O)c2ccc(F)c(F)c2)sc2c1CCC2 | 0%
Cc1ccc(Nc2ncnc3c2c(C)c(C)n3Cc2ccco2)cc1 | 9%
O=C(NC1CC(=O)N(c2cccc(F)c2)C1)c1ccccc1Cl (configuration not stated) | 13%
CCN(CC)c1ncnc2c1cnn2-c1ccc(Cl)cc1 | 71%
O=C(NCc1c(F)cccc1F)C(=O)Nc1ccccc1F | 20%

Remaining list, next part.
Compound | Mtb H37Rv
O=C(CN1C(=O)CCC1=O)Nc1sc2c(c1-c1nc3ccccc3s1)CCN(Cc1ccccc1)C2 | 7%
Cc1cccc(NC(=O)CSc2ccnc(=O)[nH]2)c1 | -14%
Cc1ccc(OCC(=O)N2CCN(c3ncnc4c3nnn4Cc3ccccc3)CC2)cc1 | 80%
CCOc1ccc(-c2nnc3c4cc5c(cc4n(Cc4ccccc4)cc2-3)OCCO5)cc1 | 18%
Cc1cccc(N2C(=O)c3ccc(C(=O)OCC(=O)Nc4cccc(C(F)(F)F)c4)cc3C2=O)c1C | 0%
CN(Cc1ccccc1)c1nc2c(c(=O)[nH]c(=O)n2C)n1CCSc1nc2ccccc2o1 | 1%
CCOc1ccc(C(=O)Oc2coc(CSc3nc(C)cc(C)n3)cc2=O)cc1OCC | -17%
CCOC(=O)c1ccc(N=Cc2c(O)cc(C)oc2=O)cc1 | 62%
Cc1cc(=O)n2c3ccccc3n(CC(O)Cn3ccnc3)c2c1C#N (configuration not stated) | 0%
CC(=O)Nc1nnc(-c2ccccc2Cl)s1 | 12%
O=C(Nc1nnc(-c2ccccc2)s1)c1cccc(C(F)(F)F)c1 | -3%
Nc1nc(SCC(=O)Nc2ccc(Cl)c(Cl)c2)[nH]c(=O)c1NC(=O)c1ccccc1 | -21%
CSc1ccc(-c2nnc(NC(=O)c3ccc(C(C)=O)cc3)o2)cc1 | 85%
COC(=O)C1=C(C)NC(=O)NC1c1ccccc1OCc1ccccc1 (configuration not stated) | -5%
Cn1c(=O)c2c(SCC(=O)Nc3ccc4c(c3)OCO4)nc(-c3ccc([N+](=O)[O-])cc3)nc2n(C)c1=O | -6%

Following part.
Compound | Mtb H37Rv
COc1cc(OC)cc(C(=O)Nc2ccc(N3CCCCS3(=O)=O)cc2)c1 | -6%
O=C(/C=C/c1cccc([N+](=O)[O-])c1)N(Cc1cccnc1)c1nc2ccc(F)cc2s1 | 1%
CC(=O)Nc1cccc(NC(=O)CSc2nnc(NC(=O)NC(C)(C)C)s2)c1 | -14%
Cc1ccc(-n2ncc3c(N(CCO)CCO)ncnc32)cc1Cl | 72%
O=C(CSc1ccnc(=O)[nH]1)Nc1ccc(F)cc1 | -1%
COc1cccc(/C=C(\C#N)c2nc3ccccc3c(=O)[nH]2)c1 | -3%
O=C(CN1C(=O)CCC1=O)Nc1nc(-c2ccc3c(c2)CCCC3)cs1 | 42%
Cc1noc(NS(=O)(=O)c2ccc(NC(=O)c3cnc4scc(C)n4c3=O)cc2)c1C | -10%
CC(=O)c1ccc(OC(=O)COc2ccc(Oc3ccc(C)cc3)cc2)cc1 | -8%
O=C(CCC1CCCCC1)N1CCN(c2ncnc3c2nnn3-c2ccc(F)cc2)CC1 | 8%
O=C(O)c1cc(Nc2nc(-c3cc4ccccc4oc3=O)cs2)ccc1O | -12%
Cc1ccc(-n2c(=O)[nH]c3c(C(N)=O)nc(-c4ccccc4)nc32)cc1C | -7%
CCOc1ccc(-n2ccnc(NCc3ccc4c(c3)OCO4)c2=O)cc1 | 83%
Fc1cccc2sc(Nc3nc4ccc(Cl)cc4s3)nc12 | 75%
O=C(CSc1ncnc2ccccc12)NCCCO | -10%
Cc1cc2cc(CCNC(=O)c3c(F)cccc3Cl)c(=O)[nH]c2cc1C | -12%
